BJeLR viab HTS: BJeLR cell viability reduction; BJeLR fibroblasts viability, CellTiterGlo ATP luminescence, 48 h; HRASV12, hTERT and SV40 LT/ST transformed; viability loss activity score, % (concentration not given with the values); hit rate 0.64% among 30,000; AID 2275; in the data active = viability loss activity score above about 50%; about a fifth of its hits are not listed in these tables;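 note: higher score means fewer live cells and less ATP luminescence; stock transfer was 50 or 100 nL into about 30 µL; 0% = vehicle wells and 100% = a reference killing control; one replicate is shown; the record names a cut of 85%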
A1 inhib: blocks A1 activity; MEF A1-2A-BIM cells, caspase-Glo luminescence, 3 h; percent of clofoctol signal, DMSO as zero; caspase activation, % (concentration not given with the values); hit rate 0.51% among 21,000; AID 2241;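 active = most replicate scores above 10, or exactly half above 10 with mean activity above 10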;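 note: effector caspase 3 and 7 activity cleaving a DEVD luciferin substrate; 50 nL library stock added to about 30 µL; numbers are from one replicate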
Starred values were filed as active, the others as inactive; . = not tested or not shown. Only part of the results is shown; count on the stated rates, not on these rows.

Each structure is followed by: BJeLR viab HTS | A1 inhib
> Cc1noc(C)c1NC(=O)N(C)C[C@H]1Oc2c(cccc2N(C)C)C(=O)N([C@H](C)CO)C[C@H]1C
    0.1 | .
> O=C(NCCCN1CCCC1=O)c1ccc2c(c1)ncn2C1CCCCC1
    1.4 | -0.1
> Cn1cc(C=C2C(=O)OC3(CCCCC3)OC2=O)c2ccccc21
    -0.7 | 0.1
> Cc1ccc2nc3c(cc(C(N)=O)c(=N)n3Cc3cccnc3)c(=O)n2c1
    -8.4 | -0.8
> C[C@@H]1CN([C@H](C)CO)C(=O)c2cc(NS(=O)(=O)c3ccccc3)ccc2O[C@@H]1CN(C)CC1CCCCC1
    -3.0 | -0.3
> COc1cccc(OC)c1C(=O)N1CCN(c2ncnc3scc(-c4ccccc4)c23)CC1
    0.9 | .
> CC(C)N(C(=O)NCc1ccccc1)C(C)C
    0.7 | 0.3
> CCOC(=O)c1sc(SCc2c(Cl)cccc2Cl)c(S(=O)(=O)C(C)C)c1N
    -6.3 | -1.1
> COC(=O)c1cc(O)cc(OC)c1C(=O)c1c(O)cc(C)cc1O
    0.0 | 0.5
> Cc1nccc(-c2cc(-c3cccc(C(F)(F)F)c3)no2)n1
    4.4 | -3.4

Additional results follow.
Each structure is followed by: BJeLR viab HTS | A1 inhib
> COC(=O)c1ccc2c(c1)C1C3CCC(C3)C1C(c1ccccc1)N2 (stereo not given)
    -1.1 | -0.3
> CC(=C\c1ccccc1)/C=C1/SC(=O)NC1=O
    4.3 | .
> CC(C)(C)c1ccc(C(=O)N(CC#N)CC#N)cc1
    1.3 | 0.7
> COc1ccc(NC(=O)Nc2cccc3c2O[C@H](CN(C)Cc2ccc(C(F)(F)F)cc2)[C@@H](C)CN([C@@H](C)CO)C3=O)cc1
    0.4 | .
> C[C@@H]1CN([C@H](C)CO)C(=O)c2cc(NC(=O)C3CC3)ccc2O[C@@H]1CN(C)C(=O)Nc1cccc2ccccc12
    -0.7 | -1.3
> C=CCS/C(=N\n1cnc2ccccc2c1=O)N1CCCCC1
    -3.6 | 0.5
> CC1CCC(C(=O)NC(C(=O)NCc2ccccn2)C(C)C)CC1 (stereo not given)
    -1.9 | .
> COc1ccc(S(=O)(=O)N(C)C[C@H]2Oc3ccc(NS(C)(=O)=O)cc3C(=O)N([C@H](C)CO)C[C@H]2C)cc1
    4.8 | 1.2
> O=C(OCc1ccc2nonc2c1)c1c2c(nc3ccccc13)CCCC2
    -3.0 | -1.1
> CN(Cc1ccccc1)C(=O)c1c[nH]c2ccc(S(=O)(=O)N3CCOCC3)cc2c1=O
    3.3 | -0.3

Remaining list, next part
Each structure is followed by: BJeLR viab HTS | A1 inhib
> COc1c2occc2c(OC)c2c(=O)cc(CO[C@@H]3O[C@H](CO)[C@@H](O)[C@H](O)[C@H]3O)oc12
    -6.1 | 0.2
> COc1ccc(NC(=O)N(C)C[C@@H]2Oc3c(NC(=O)NC4CCCCC4)cccc3C(=O)N([C@H](C)CO)C[C@H]2C)cc1
    3.1 | .
> CC[n+]1c(C=C2C=C(C)CC(C)C2)sc2ccccc21 (stereo not given)
    6.2 | -1.2
> Cc1ccc(S(=O)(=O)Nc2ccc3c(c2)C(=O)N([C@@H](C)CO)C[C@H](C)[C@H](CN(C)C(=O)Nc2cccc4ccccc24)O3)cc1
    -4.3 | 0.5
> COc1ccc(CN(C)C[C@H]2Oc3ccc(NC(=O)C4CC4)cc3C(=O)N([C@@H](C)CO)C[C@@H]2C)cc1
    -1.6 | -0.2
> CC(=O)Oc1ccc2c(c1C(C)C)CCC1C(C)(C)CCC[C@]21C (stereo not given in full)
    -2.8 | -0.2
> O=c1c(O)c(-c2ccc(O)cc2)oc2cc(OC3O[C@H](CO)[C@@H](O)[C@H](O)[C@H]3O)cc(O)c12 (stereo not given in full)
    -1.6 | 1.8
> C[C@@H]1CN([C@H](C)CO)C(=O)c2cccc(NC(=O)Nc3cccc4ccccc34)c2O[C@@H]1CN(C)S(=O)(=O)c1ccc(Cl)cc1
    12.2 | .
> COc1ccc(NC(=O)N(C)C[C@H]2Oc3ccc(NS(C)(=O)=O)cc3C(=O)N([C@@H](C)CO)C[C@@H]2C)cc1
    -3.4 | -0.8
> C[C@@H]1CN([C@@H](C)CO)C(=O)c2cccc(NC(=O)c3nc4ccccc4s3)c2O[C@H]1CN(C)S(=O)(=O)c1cn(C)cn1
    6.7 | .

(more compounds)
Each structure is followed by: BJeLR viab HTS | A1 inhib
> COc1ccc(-c2csc(-c3ccc(OC)cc3)n2)cc1
    3.0 | -0.7
> C[C@H](CO)N1C[C@H](C)[C@@H](CN(C)C(=O)Nc2ccccc2)Oc2ccc(NC(=O)Cn3cnnn3)cc2C1=O
    -0.5 | -0.4
> COc1ccc(NC(=O)N(C)C[C@@H]2Oc3c(NC(=O)NC4CCCCC4)cccc3C(=O)N([C@@H](C)CO)C[C@@H]2C)cc1
    0.0 | .
> CCn1ccc(C(=O)Nc2nccs2)n1
    7.2 | .
> CCNC(=O)c1ccc2c(c1)sc1nc(-c3ccccc3)cn12
    -1.2 | -5.6
> C[C@H](CO)N1C[C@H](C)[C@H](CN(C)Cc2ccc3c(c2)OCO3)Oc2c(NC(=O)C3CCCCC3)cccc2C1=O
    -1.0 | .
> COc1cc(/C(C)=C/C(C)CCCC(=O)O)oc(=O)c1C (stereo not given)
    -0.1 | 0.2
> COc1ccc(NC(=O)N(C)C[C@@H]2Oc3c(NC(=O)C4CC4)cccc3C(=O)N([C@H](C)CO)C[C@H]2C)cc1
    -0.6 | .
> Cc1ccc2c(c1)c(-c1ccccc1)c(-c1ccccc1)n2CC(O)CNCc1ccco1 (stereo not given)
    -3.7 | 0.9
> CC(C)NC(=O)N(C)C[C@@H]1Oc2ccc(NC(=O)Cc3cn(C)c4ccccc34)cc2C(=O)N([C@@H](C)CO)C[C@H]1C
    -1.0 | -0.2

(cont.)
Each structure is followed by: BJeLR viab HTS | A1 inhib
> O=C(NCC1CCCO1)c1ccc2c(c1)sc1nc(-c3ccccc3)cn12 (stereo not given)
    1.0 | -1.1
> C[C@H](CO)N1C[C@H](C)[C@H](CN(C)C(=O)Nc2cccc3ccccc23)Oc2ccc(NC(=O)NC3CCCCC3)cc2C1=O
    -6.3 | 0.0
> CC(=O)Oc1cc(OC(C)=O)c2c(c1)O[C@H](c1ccc(OC(C)=O)c(OC(C)=O)c1)[C@H](OC(C)=O)C2
    4.6 | 1.3
> C[C@@H]1CN([C@H](C)CO)C(=O)c2cc(NS(=O)(=O)c3ccc(F)cc3)ccc2O[C@@H]1CN(C)S(=O)(=O)c1ccc(F)cc1
    0.2 | 0.4
> C[C@H](CO)N1C[C@H](C)[C@@H](CN(C)C(=O)Nc2ccc3c(c2)OCO3)Oc2ccc(NC(=O)Nc3cccc4ccccc34)cc2C1=O
    -10.6 | 0.1
> C[C@H]1CN([C@@H](C)CO)C(=O)c2cc(NC(=O)Nc3ccc4c(c3)OCO4)ccc2O[C@H]1CN(C)C(=O)Nc1ccc(C(F)(F)F)cc1
    1.0 | -0.5
> O=C(CSc1ncnc2c1nnn2Cc1ccccc1)NCc1ccccc1
    -4.8 | -0.5
> C[C@@H]1CN([C@@H](C)CO)C(=O)c2cccc(NC(=O)Nc3ccc4c(c3)OCO4)c2O[C@@H]1CN(C)Cc1ccccc1
    -1.5 | .
> C[C@H](CO)N1C[C@H](C)[C@@H](CN(C)CC2CCCCC2)Oc2ccc(NC(=O)CCCCCC(=O)Nc3ccccc3N)cc2C1=O
    3.0 | .
> COc1ccc(C2SCC(C(=O)NC(C)C)N2C(=O)Nc2ccc(C)c(C)c2)cc1 (stereo not given)
    3.2 | -0.5

Further structures follow:
Each structure is followed by: BJeLR viab HTS | A1 inhib
> CC(=O)Nc1cc(C(=O)N2CC=C(c3ccccc3)CC2)ccc1Sc1ccc(Cl)cc1
    0.3 | -0.3
> Cc1ccc(S(=O)(=O)N(C)C[C@@H]2Oc3c(NC(=O)c4ccncc4)cccc3C(=O)N([C@H](C)CO)C[C@@H]2C)cc1
    1.4 | .
> O=C(NCCN1CCCCCC1)c1cnn2c(C(F)(F)F)cc(-c3ccccc3)nc12
    5.2 | 0.5
> O=C(Nc1ccc(Cl)cc1)c1ccc2ncsc2c1
    1.1 | -2.2
> Cc1noc(C)c1NC(=O)Nc1cccc2c1O[C@H](CN(C)Cc1ccc(C(=O)O)cc1)[C@H](C)CN([C@H](C)CO)C2=O
    -0.4 | .
> CSc1nnc(-c2ccc(C(C)(C)C)cc2)n1C
    8.8 | -2.5
> Cc1noc(C)c1NC(=O)N(C)C[C@H]1Oc2c(NC(=O)Nc3ccc(C(F)(F)F)cc3)cccc2C(=O)N([C@H](C)CO)C[C@H]1C
    0.6 | .
> Cc1ccc(CNC(=O)CCCc2nnc3n4nc(C)nc4c4ccccc4n23)cc1
    11.3 | -0.3
> Cc1ccc(S(=O)(=O)Nc2cccc3c2O[C@@H](CN(C)Cc2ccc(Oc4ccccc4)cc2)[C@H](C)CN([C@@H](C)CO)C3=O)cc1
    2.5 | .
> Cc1c(Cl)cccc1NC(=O)c1cccnc1Cl
    -1.1 | 0.5

(listing goes on)
Each structure is followed by: BJeLR viab HTS | A1 inhib
> CC1CCc2sc(NC(=O)C(Cc3ccccc3)Cc3ccccc3)c(C#N)c2C1 (stereo not given)
    3.1 | 0.4
> Cc1cc2ncn(Cc3ccccc3C)c2cc1C
    1.9 | -0.5
> COc1ccc(OC2OC(COC3OCC(O)C(O)C3O)C(O)C(O)C2O)cc1OC (stereo not given)
    1.7 | 0.3
> C=C(C)CC1C(=O)N(S(=O)(=O)c2ccccc2Cl)N=C1C (stereo not given)
    23.7 | 0.0
> CC(c1cccs1)N(C(=O)Nc1ccccc1)C1CCCCC1 (stereo not given)
    1.9 | 0.6
> O=C1CC(c2ccccc2)Oc2cc(O)cc(O)c21 (stereo not given)
    -3.2 | -1.6
> O=C(Cn1cnc2c(oc3ccccc32)c1=O)N1CCCCCC1
    -0.1 | 0.0
> COc1ccc(S(=O)(=O)Nc2ccc3c(c2)C(=O)N([C@H](C)CO)C[C@H](C)[C@H](CN(C)S(=O)(=O)c2ccc(C)cc2)O3)cc1
    -3.8 | -0.1
> Cc1noc(C)c1NC(=O)Nc1cccc2c1O[C@@H](CN(C)C(=O)Nc1ccccc1)[C@H](C)CN([C@@H](C)CO)C2=O
    3.2 | .
> COc1cc(C(=O)Sc2ccc(Cl)cc2)cc(OC)c1OC
    -4.8 | 1.7

Next section:
Each structure is followed by: BJeLR viab HTS | A1 inhib
> C[C@@H]1CN([C@H](C)CO)C(=O)c2cc(NC(=O)CCN3CCOCC3)ccc2O[C@@H]1CN(C)Cc1ccc(C(F)(F)F)cc1
    -2.6 | -0.3
> C[C@H](CO)N1C[C@H](C)[C@@H](CN(C)C(=O)NC2CCCCC2)Oc2ccc(N(C)C)cc2C1=O
    2.5 | 0.4
> O=C1C2=C(c3ccccc3)c3cc(F)ccc3C2Sc2ccccc21 (stereo not given)
    -2.1 | -0.3
> CCCCCCCCC/C=C/CCCCC(=O)C1C(=O)CCC(O)C1=O (stereo not given)
    1.9 | 0.6
> C[C@H]1CN([C@@H](C)CO)C(=O)c2cc(NS(=O)(=O)c3cccs3)ccc2O[C@H]1CN(C)S(C)(=O)=O
    -3.0 | 0.6
> CCN(CC)S(=O)(=O)c1ccccc1/C=N/O
    4.0 | -0.4
> CCSc1nc2c(c(=O)[nH]1)C1(CCCC1)Cc1ccccc1-2
    0.5 | 0.3
> COc1ccc(S(=O)(=O)Nc2ccc3c(c2)C(=O)N([C@H](C)CO)C[C@H](C)[C@@H](CN(C)CC2CCCCC2)O3)cc1
    0.4 | 0.2
> C=CCSc1nnc2n1CCCN2C(=O)Nc1cccc(Cl)c1
    -3.6 | 0.5
> O=C(N1CCN(c2ccccc2)CC1)C12CC3CC(CC(C3)C1)C2
    -0.3 | 1.3

Remaining list, next part
Each structure is followed by: BJeLR viab HTS | A1 inhib
> C[C@H]1CN([C@@H](C)CO)C(=O)c2cccc(NC(=O)Nc3ccc(C(F)(F)F)cc3)c2O[C@@H]1CN(C)S(=O)(=O)c1ccc(F)cc1
    6.0 | .
> COc1ccc(S(=O)(=O)Nc2cccc3c2O[C@@H](CN(C)C(=O)Nc2ccc(C(F)(F)F)cc2)[C@@H](C)CN([C@@H](C)CO)C3=O)cc1
    -4.0 | .
> CC(C)(C)c1nc(SCc2nc(-c3cccc(-n4cccc4)c3)no2)n[nH]1
    4.7 | 0.5
> O=C(NCc1ccccc1)c1cc2c(s1)-c1ccccc1SC2
    -2.1 | .
> CNC(=S)C12CC3CC(CC(C3)C1)C2
    -0.3 | -0.5
> C[C@H](CO)N1C[C@H](C)[C@H](CN(C)Cc2ccc(C(=O)Nc3ccccc3N)cc2)Oc2ccc(N(C)C)cc2C1=O
    15.2 | .
> Cc1noc(C)c1NC(=O)N(C)C[C@@H]1Oc2c(NC(=O)C3CCOCC3)cccc2C(=O)N([C@H](C)CO)C[C@H]1C
    -0.7 | .
> C[C@H]1CN([C@@H](C)CO)C(=O)c2cccc(NC(=O)Nc3ccc(F)cc3)c2O[C@@H]1CN(C)Cc1ccc(Oc2ccccc2)cc1
    -0.3 | .
> Cc1nn(CCCC(=O)NC(C)C)c(=O)c2cc3sccc3n12
    -4.5 | 0.1

One compound at a time (already shown):
`C[C@H]1CN([C@@H](C)CO)C(=O)c2cccc(NC(=O)Nc3ccc(C(F)(F)F)cc3)c2O[C@@H]1CN(C)S(=O)(=O)c1ccc(F)cc1` as listed: BJeLR viab HTS = 6.0; A1 inhib = .
`CNC(=S)C12CC3CC(CC(C3)C1)C2` as listed: BJeLR viab HTS = -0.3; A1 inhib = -0.5
`COc1ccc(S(=O)(=O)Nc2cccc3c2O[C@@H](CN(C)C(=O)Nc2ccc(C(F)(F)F)cc2)[C@@H](C)CN([C@@H](C)CO)C3=O)cc1` as listed: BJeLR viab HTS = -4.0; A1 inhib = .
